Source: PubChem BioAssay
NPYLR7 agonist = activates Aedes aegypti NPYLR7 receptor. AID 1259423. HEK293T NPYLR7/Galpha15, GCaMP6s calcium fluorescence. 0.15% of 270,000 active. activation, % at 10 µM; in the data active = activation above about 40%;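 note: 0% = vehicle and 100% = reference agonist at the receptor; some compounds past the cut are filed as inactive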
NPYLR7 agonist max-min = further read-out of NPYLR7 agonist, marked with its call; activation, %; measured here: Max-Min RFU normalised activation; some inactives read as strong as hits;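 span of the calcium signal over five minutes; 0% = vehicle and 100% = native peptide agonist; compound fluorescence can raise it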
* = called active by the depositor; & = joins results of further samples.

SMILES	NPYLR7 agonist	NPYLR7 agonist max-min
Cc1ccc(-c2nc(C)c(C)c(N3CCN(C(=O)Nc4ccccc4Br)CC3)n2)cc1	-6	0
Cn1nnnc1-c1cccc(NS(=O)(=O)c2cn(C)c(=O)n(C)c2=O)c1	5	4
Cc1csc2nc(CSc3nnc(Cc4cccs4)n3C3CC3)cc(=O)n12	1	3
CN(C)c1cccc(C(NC(=O)CCC(=O)c2ccc(F)cc2)c2ccc(S(C)(=O)=O)cc2)c1 (configuration not stated)	1	-7
CC(C)Cn1cncc1CNC1CCSCC1	20	16
O=C(c1ccc(CSc2nnc(-c3cccs3)n2-c2cccc(Cl)c2)cc1)N1CCCC1	20	30
CC(C=NN1CCN(Cc2cccc3ccccc23)CC1)=Cc1ccco1	-4	-11
O=C(CCc1cc2c(n1-c1ccc(F)cc1Cl)-c1ccccc1CO2)NCCCn1ccnc1	-3	-5
CN(CCNC(=O)CCSc1ccc2c(c1)OCCO2)S(C)(=O)=O	4	2
C=CCn1c(=O)c2ccccc2n2c(SCC(=O)NCCOc3ccc(C)cc3C)nnc12	3	-2
Cc1cc(N2CCN(c3cccc(C(F)(F)F)c3)CC2)nc(SCc2ccc(C(=O)NCCN(C)C)o2)n1	-10	-3
COc1ccccc1C(=O)Nn1cnc2c(cnn2-c2ccccc2)c1=O	2	-2
NCCc1cnc[nH]1	-3&-3&0	-4&-10&-24
COc1cccc(OCCOCC(O)CN2CCN(CCO)CC2)c1 (configuration not stated)	2	2
CC(C)N(CCc1ccccc1)C(=O)CS(C)(=O)=O	12	2
CCCCNC(=O)NC(C)C(=O)Nc1nnc(-c2ccc(OC)cc2)s1 (configuration not stated)	2	-5
CSc1ncc(CNCc2c(F)cccc2Cl)c(N2CCC(N3CCCCC3)CC2)n1	1	2
CN(Cc1cn(-c2ccc(F)cc2)nc1-c1ccccc1Cl)Cc1nccn1C	1	1
C=CCn1c(C(=O)NCCN2CCCC2)cc2sc(C)cc21	4	4
COc1ccc(-c2coc3cc4oc(=O)c5ccccc5c4cc23)cc1F	-4	-6
Cc1cccc(S(=O)(=O)N2CCN(C(=O)CC3CCCC3)CC2)c1	6	7
COCCc1nsc(NC2CCN(c3ccc(C#N)cn3)CC2)n1	0	-1
CCn1c(=O)c(C)nc2cc(C(=O)OCc3nc(C)no3)ccc21	0	1
CCN(Cc1ccncc1)C(=O)c1ccc(C2CCNC2)cc1 (configuration not stated)	9	7
CC1(C)C2CC[C@@]1(CS(=O)(=O)N1CCCN(c3nc(Cc4ccccc4)nc4c3cnn4-c3ccccc3)CC1)C(=O)C2	7	10
CC1=NC2=C(C(=O)CC(C)(C)C2)C(c2ccc(Cl)cc2Cl)C1C#N (configuration not stated)	8	8
COc1ccc(-c2cc(=O)c3c(O)cc(O)cc3o2)cc1O	2	4
N=C1/C(=C\c2ccc(Br)o2)C(=O)N=C2SC(Cc3cccs3)=NN12	-3	-3
CCOC(=O)c1c(C)[nH]c(C(=O)C(C)N2CCC(C(=O)OCC)CC2)c1C (configuration not stated)	9	7
CC1=C(C(=O)N2CCc3c([nH]c4ccccc34)C2)C(c2cccnc2)NC(=O)N1 (configuration not stated)	1	-5
CC(C)(C)CN1CC(O)CN(C(=O)Cc2ccccc2)CC1=O (configuration not stated)	4	15
COCCn1c(C(=O)N2CCCc3ccccc32)cc2c(=O)n(C)c(=O)n(C)c21	-2	-4
COCC(=O)NCCN1C(=O)SC(=Cc2ccc(OC(F)F)cc2)C1=O	2	-3
Cc1cc(C)c(S(=O)(=O)N2CCCOC2CNC(=O)C(=O)NCCc2ccccc2)c(C)c1 (configuration not stated)	-6	-4
CCS(=O)(=O)N1CCN=C1SCc1cccnc1	20	18
O=C(NCc1nnnn1C1CCCCC1)c1ccccc1F	4	0
CC(C)C(N)c1csc(Nc2nncc3ccccc23)n1 (configuration not stated)	-5	-8
CCc1[nH]n(-c2ccc(Cl)c(Cl)c2)c(=O)c1C1=C(N(C)CC)C(=O)N(c2cc(C)ccc2OC)C1=O	2	10
COc1cccc(CS(=O)(=O)N(C)Cc2ccccn2)c1	0	-1
CCOc1ccc(S(=O)(=O)N2CCCCC2)cc1NC(=O)C1CC=CCC1 (configuration not stated)	9	7
CC(CNC(=O)C1CC2CCC1O2)Oc1cccc(F)c1 (configuration not stated)	-6	-5
CN=c1scc(-c2ccccc2)n1N=Cc1c[nH]c2ccccc12	3	4
COc1cc(NC(=O)NCCS(=O)(=O)c2c(C)[nH]c3ccccc23)cc(OC)c1OC	2	0
Cc1cc(C)n(-c2nc3ccccc3nc2NCC(C)O)n1 (configuration not stated)	-1	-1
CCOC(=O)C1CCCCN1C(=O)/C=C/c1ccc2c(c1)OCO2 (configuration not stated)	-7	-18
CCNC(=O)C1(C)CCN(CCOc2ccc(OC)cc2)C1 (configuration not stated)	2	4
CC(C)(C)n1ncc2c(=O)n(CC(=O)N3CCc4ccccc43)cnc21	5	46
Cc1cccc(CNC(=O)C23CC4CC(CC(O)(C4)C2)C3)c1	1	-1
CN(C)S(=O)(=O)c1ccc(N2CCCC2)c(C(=O)NC2CCCC2)c1	10	6
CCc1nc2ccc(C(=O)NCCN3CCOCC3)cn2c1N(C=O)Cc1ccc(OC)cc1	21	21
CCC(C)C(NC(=O)Nc1ccccc1F)C(=O)Nc1nnc(-c2ccc(Br)cc2)s1 (configuration not stated)	3	16
CCn1c2ccccc2c2cc(C3Nc4ccccc4N=C4CC(c5ccc(Cl)cc5)CC(=O)C43)ccc21 (configuration not stated)	11	15
CCOc1ccc(-c2cc(C(=O)NCc3ccccn3)c3ccccc3n2)cc1	-3	4
CCC(C)NC(=O)Cn1nc(C)c(S(=O)(=O)N(C)C)c1C (configuration not stated)	7	14
Cc1ccc(NC(=O)Nc2ccc(N3CCCC3)c(C(=O)NCc3ccc(F)cc3)c2)cc1C	7	5
COc1ccc(NC(=O)CSC2=NC3(CCCC3)Nc3ccccc32)cc1	-6	-3
COc1ccc(-c2nc3scc(CCNC(=O)COc4ccccc4)n3n2)cc1	7	5
Cc1ccc(C)c(NC(=O)CSc2nnc3cc(C)c4ccccc4n23)c1	2	3
O=C(/C=C/c1cccs1)N(Cc1cccnc1)c1nc2cc3c(cc2s1)OCCO3	-1	6
COc1ccccc1-c1nc2ccc(C)cn2c1NC(=O)COc1ccccc1	-5	-1
More entries follow:
SMILES	NPYLR7 agonist	NPYLR7 agonist max-min
CCN(CC)S(=O)(=O)c1cccc(C(=O)Nc2ccccc2OC)c1	4	3
N#Cc1c(-c2ccccc2)nc2n(-c3ccccc3)nc(C(=O)Nc3ccccc3)n2c1=O	-1	-4
O=S(=O)(c1cccc(F)c1)N1CCN(Cc2nc(-c3ccccc3)no2)CC1	5	9
CC1(C(=O)NS(=O)(=O)c2cccc(C#N)c2)CCN1C(=O)c1ccc(C2CCCCC2)cc1 (configuration not stated)	-1	-1
Cc1ccc2nc(SCC(=O)N3CCc4ccccc43)nc(=O)n2c1	2	-1
Cc1cc(-c2cc(N)nc3[nH]ccc23)cnc1N	4	-1
COc1ccc(CC(=O)N2CCN(c3nccc(-c4ccco4)n3)CC2)cc1	2	4
CCc1[nH]n(-c2ccc(OC)cc2)c(=O)c1C1=C(N2CCOCC2)C(=O)N(c2ccc(OC)cc2OC)C1=O	4	10
COc1ccc(C(=O)Oc2c(S(=O)(=O)c3ccccc3)c(C)nn2C(C)(C)C)cc1	1	36
CC1(c2cccnc2)CC(=O)c2ccccc2O1 (configuration not stated)	-8	-10
NS(=O)(=O)c1cc2c(cc1C(F)(F)F)NC(c1ccccc1Br)NS2(=O)=O (configuration not stated)	1	-2
CCOC(=O)c1ccc(Nc2nc(-c3cc4cc(Cl)ccc4oc3=O)cs2)cc1	17	15
FC(F)(F)c1cccc(CSc2nnc(-c3ccncc3)n2-c2cccc(C(F)(F)F)c2)c1	2	3
CCS(=O)(=O)c1ncc(CN(C)Cc2ccc(C)o2)n1CCOC	3	-2
CC1=C(C(=O)OC2CCCC(C)C2)C(c2cccc(F)c2)NC(=O)N1 (configuration not stated)	-5	-12

A second format for 4 compounds above:
COc1ccc(CC(=O)N2CCN(c3nccc(-c4ccco4)n3)CC2)cc1
  NPYLR7 agonist: 2
  NPYLR7 agonist max-min: 4
CCc1[nH]n(-c2ccc(OC)cc2)c(=O)c1C1=C(N2CCOCC2)C(=O)N(c2ccc(OC)cc2OC)C1=O
  NPYLR7 agonist: 4
  NPYLR7 agonist max-min: 10
COc1ccc(C(=O)Oc2c(S(=O)(=O)c3ccccc3)c(C)nn2C(C)(C)C)cc1
  NPYLR7 agonist: 1
  NPYLR7 agonist max-min: 36
CC1(c2cccnc2)CC(=O)c2ccccc2O1 (configuration not stated)
  NPYLR7 agonist: -8
  NPYLR7 agonist max-min: -10

Laid out differently: 4 of the compounds above
NS(=O)(=O)c1cc2c(cc1C(F)(F)F)NC(c1ccccc1Br)NS2(=O)=O (configuration not stated)
- NPYLR7 agonist: 1
- NPYLR7 agonist max-min: -2

CCOC(=O)c1ccc(Nc2nc(-c3cc4cc(Cl)ccc4oc3=O)cs2)cc1
- NPYLR7 agonist: 17
- NPYLR7 agonist max-min: 15

FC(F)(F)c1cccc(CSc2nnc(-c3ccncc3)n2-c2cccc(C(F)(F)F)c2)c1
- NPYLR7 agonist: 2
- NPYLR7 agonist max-min: 3

CCS(=O)(=O)c1ncc(CN(C)Cc2ccc(C)o2)n1CCOC
- NPYLR7 agonist: 3
- NPYLR7 agonist max-min: -2

More records.
SMILES	NPYLR7 agonist	NPYLR7 agonist max-min
Cc1nn(C)c(=O)c(C(=O)N2CSCC2C(=O)NNC(=O)c2ccccc2)c1C (configuration not stated)	-2	0
Cc1cc(N2CCCC2)nc(Nc2ccc(NC(=O)C(C)Oc3ccccc3)cc2)n1 (configuration not stated)	12	5
CCOCCOC1CCCN(C(=O)C(C)C)C1 (configuration not stated)	-7	-3
CCOC(=O)c1c(NC(=O)c2cccc(C)c2)sc(C(=O)Nc2ccccc2OC)c1C	-8	-14
COCCCn1c(C)cn2c3c(=O)n(Cc4ccc(F)cc4)c(=O)n(C)c3nc12	11	6
O=C(NCc1ccco1)c1cn(CCOc2ccc(F)cc2)c(=O)s1	4	1
COc1cc(C(C2Sc3nc(C)nn3C2=O)N2CCC(O)CC2)cc(OC)c1OC (configuration not stated)	-3	-2
Cc1cccnc1[C@H](C)NC(=O)CCc1nc2ccccc2s1	2	3
O=C(C1CCCCC1)N1CCN(S(=O)(=O)NCc2ccccc2)CC1	-2	-2
COCCn1c(CN2CCN(c3ccc(OC)cc3)CC2)nc2c1c(=O)n(C)c(=O)n2C	2	11
Cc1csc(C(C)NCc2ccc(OCC(C)C)cc2)n1 (configuration not stated)	0	1
Cc1ccc(C2(O)CCN(C(=O)c3cnc4c(c3)nnn4C)CC2)nc1	1	2
COC(=O)c1ccc(COC(=O)c2cccc(S(=O)(=O)N3c4ccccc4CC3C)c2)o1 (configuration not stated)	-9	-4
N#CCCN(CC1CC1)C(=O)c1cccc(S(=O)(=O)Nc2ccccc2Cl)c1	6	3
Nc1[nH]n(-c2ccccc2)c(=O)c1N=Nc1cccc2ccccc12	3&-14	0&-15
O=C(NCC(F)(F)F)C1CCC(=O)N(CCc2cccc(F)c2)C1 (configuration not stated)	5	3
COC(=O)c1c(CC(=O)N2CSCC2C(=O)Nc2ncc(C)s2)[nH]c(C(C)=O)c1C (configuration not stated)	2	2
NC1CCCN(S(=O)(=O)c2ccc3c(c2)NC(=O)CCS3)CC1 (configuration not stated)	8	4
CCc1nc(C)c(C(=O)N2Cc3cnc(C(C)(C)C)nc3C2)o1	1	0
CN(C)CCN(C(=O)C1CCCCC1)c1nc2cc3c(cc2s1)OCCO3	-4	-8
O=[N+]([O-])c1ccccc1C=NN1CCN(c2ccc(Cl)cc2)CC1	1	1
CCOc1ccccc1NC(=O)N(CC(=O)N(Cc1ccccc1)Cc1sccc1C)C(C)C	19	22
c1ccc(CNc2nc(-c3cccs3)nc3ccccc23)cc1	-2	-4
CN(C)S(=O)(=O)c1ccc(Cn2cc(C(=O)NCc3ccccc3)sc2=O)cc1	11	4
COc1ccc(CN(CCN2CCOCC2)CC(O)COc2ccccc2C)cc1 (configuration not stated)	22	16
CSCCCNC(=S)Nc1ccccc1I	-2	-2
COc1coc(C(=O)Nc2ccc(NC(C)=O)cc2)cc1=O	7	0
CN1CCN(C(=O)CN2C(=O)c3ccccc3C2=O)CC1	3&-5	-4&-9
CCc1nc(CN2CCC3(CC2)C(=O)N(CCc2ccccc2)C(=O)N3C)c(C)[nH]1	8	0
CC1(C)NC(=O)N(CCCCOc2ccc(C(C)(C)c3ccccc3)cc2)C1=O	-6	9
COc1ccc(OC)c(CN(Cc2ccco2)S(=O)(=O)c2ccc(Cl)s2)c1	-10	-14
CCn1ccnc1CN(C)C(C)C(=O)N(C)C (configuration not stated)	5	-2
CC(Cc1ccco1)NC(=O)C(C)NC(=O)CC1CCCCC1 (configuration not stated)	5	4

Entries from the list above that contain a CF3 group, in the order listed:
SMILES	NPYLR7 agonist	NPYLR7 agonist max-min
Cc1cc(N2CCN(c3cccc(C(F)(F)F)c3)CC2)nc(SCc2ccc(C(=O)NCCN(C)C)o2)n1	-10	-3
NS(=O)(=O)c1cc2c(cc1C(F)(F)F)NC(c1ccccc1Br)NS2(=O)=O (configuration not stated)	1	-2
FC(F)(F)c1cccc(CSc2nnc(-c3ccncc3)n2-c2cccc(C(F)(F)F)c2)c1	2	3
O=C(NCC(F)(F)F)C1CCC(=O)N(CCc2cccc(F)c2)C1 (configuration not stated)	5	3

This is a subset (hit frequency here may not be typical).
